Menin-MLL FL inh = displaces fluorescein MLL peptide from human menin. FP activity change, % at 61.4 µM. Fluorescence polarization, fluorescein-MLL peptide displacement from menin. 290,000 tested, under 10 active; inconclusive = falling polarisation curve, or a change in total fluorescence; inactive = total fluorescence flat and polarisation flat or rising; no compound was filed as active; the % refers to the polarisation; negative = inhibition;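 further: % of control where 0% means no effect; inhibitors lower the polarisation; unlabelled MLL peptide was the positive control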
gsp agonist = agonists of gsp mutant (McCune-Albright syndrome); 0.13% of 340,000 active; gsp mutant cells, cAMP HTRF, 30 min; control for the full effect not named in the record; Potency, µM (highest dose often 76.9 µM), for inactives: at the top dose activation (cAMP increase), usual class: activators; active = well fitted activation curve with a large enough effect; inconclusive = small, poorly fitted or top-dose-only effect, or another doubt; inactive = no such curve, though single readings can be large or run the other way; cell line not stated here;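 further: phosphodiesterase inhibitor Ro 20-1724 added with compounds to block cAMP breakdown; potency means the concentration at half of the fitted maximal effect; nearly all actives have a fitted effect of over 60% in size; about a fifth of the inactives were tested at one dose only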
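Cells stably selected in G418 were plated at 2000/well, grown 16-24 hr, then given compounds in DMSO with the PDE inhibitor […] (300 uM solution added) for 30 min at 37C; cAMP was read by HTRF.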
TRPML1 blocker = human mucolipin-1 channel inhibition. Q9GZU1. TRPML1-inducible cells, Ca2+ dye fluorescence, FDSS; active compounds read low; inhibition of EC80 agonist-evoked calcium signal. activity change, negative = inhibition, % (concentration not given with the values). 0.02% of 390,000 active. AID 624415; in the data active means activity change below about -50%; inconclusive means about -30% to -50%; inactive means above about -30%;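 further: stimulus is agonist 54-4 at its EC80 concentration; on the % scale 0 is the no-effect control and ±100 the full control effect; the text of the record puts the active cut at -80%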
Target sequence (Q9GZU1 whole entry, looked up): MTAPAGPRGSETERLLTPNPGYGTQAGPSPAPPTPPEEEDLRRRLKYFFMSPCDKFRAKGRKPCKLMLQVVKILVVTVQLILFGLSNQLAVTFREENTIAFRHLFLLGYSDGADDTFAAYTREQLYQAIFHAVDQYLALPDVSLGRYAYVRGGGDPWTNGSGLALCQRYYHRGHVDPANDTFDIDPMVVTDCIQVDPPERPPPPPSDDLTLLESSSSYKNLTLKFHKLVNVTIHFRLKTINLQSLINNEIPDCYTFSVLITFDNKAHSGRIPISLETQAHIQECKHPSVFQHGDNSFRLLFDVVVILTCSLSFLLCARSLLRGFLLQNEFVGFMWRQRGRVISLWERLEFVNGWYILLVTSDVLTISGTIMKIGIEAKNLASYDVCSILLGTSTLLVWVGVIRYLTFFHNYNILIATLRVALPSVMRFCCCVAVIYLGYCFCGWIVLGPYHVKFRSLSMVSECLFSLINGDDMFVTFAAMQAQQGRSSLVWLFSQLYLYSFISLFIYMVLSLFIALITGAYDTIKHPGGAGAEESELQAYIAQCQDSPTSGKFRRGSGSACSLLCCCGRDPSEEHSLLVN
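TRPML1-DL cells, Tet-induced overnight (~16 h, 37 °C) at 1,500 cells/well, were loaded with Ca8 no-wash dye plus quencher for 45-90 min at room temperature. Compounds were pinned during FDSS kinetic reading; agonist 54-4 at EC80 (4 uM final) then added.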
Sfp inh = inhibitors of Bacillus subtilis Sfp phosphopantetheinyl transferase. Biochemical Sfp PPTase activity, qHTS. Potency, µM, for inactives: max response, negative = inhibition, most hits filed as inhibitors. 3.5% of 310,000 active; active means well fitted inhibition curve with a large enough effect; inconclusive means small, poorly fitted or top-dose-only effect, or another doubt; inactive means no such curve, though single readings can be large or run the other way;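 further: the enzyme is Sfp with the accession as filed and its product quenches rhodamine fluorescence; potency means the concentration at half of the fitted maximal effect; 0% = enzyme reaction without inhibitor and -100% = no enzyme wells; top concentration of the series not given in the record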
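With Hepes-Na pH 7.6 buffer containing 10 mM MgCl2, Sfp (15 nM) modified BHQ-2-YbbR (12.5 uM) using rhodamine-CoA (5 uM). Two reads 30 minutes apart at 525/598 nm yielded each well's rate.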
ClpP mod = qHTS Assay for Activators of ClpP; Potency, µM (top dose mostly 57.5 µM), for the others: top-dose activity change, negative = active; purified B. subtilis ClpP, FRET peptide cleavage, 20 min; ATP-dependent Clp protease proteolytic subunit (Bacillus subtilis (strain 168)), P80244; 1.9% of 340,000 active; AID 651965, 2013; active = well fitted falling curve with a large enough effect; inconclusive = small, poorly fitted or top-dose-only effect; inactive = no such curve, though single readings can be large or run the other way; further: potency means the concentration at half of the fitted maximal effect; the source files actives as falling curves though it sought activators and does not explain the sign; nearly all actives have a fitted effect of over 65% in size; many hits overshoot -100%
Target sequence (P80244 whole entry, looked up): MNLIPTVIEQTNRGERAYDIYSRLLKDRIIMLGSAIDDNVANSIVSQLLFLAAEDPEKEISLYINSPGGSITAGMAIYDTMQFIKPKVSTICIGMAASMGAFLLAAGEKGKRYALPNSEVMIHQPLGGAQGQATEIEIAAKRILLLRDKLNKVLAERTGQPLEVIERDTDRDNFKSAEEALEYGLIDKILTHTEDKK
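FRET quenching reversal measured ClpP activation: 10 microg/mL B. subtilis ClpP at pH 8 with the FRET-FV decapeptide, read at 430 nm after 320 nm excitation. The 20-min minus 0-min signal was scaled between DMSO/no-enzyme wells and ADEP (5.8 microM final).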
gsp antagonist = gsp mutant antagonism; gsp-mutant cells, cAMP HTRF, 30 min; control for the full effect not named in the record; 0.4% of 340,000 active; AID 624288; Potency, µM (titrated, usually from 76.9 µM), for inactives: at the highest dose activity change, negative = inhibition, most hits filed as inhibitors; active = falling curve of any shape with a large fitted effect; inconclusive = falling curve, mostly with a smaller effect; inactive = flat or rising curve; cell line not stated here;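 further: intracellular cAMP measured with PDE inhibitor Ro 20-1724 present during compound exposure; potency means the concentration at half of the fitted maximal effect; on the % scale 0 is the no-effect control and ±100 the full control effect; nearly all actives have a fitted effect of over 65% in size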
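G418-selected cells were plated in DMEM/10% FBS for 16-24 h at 37C, then treated with compounds plus the PDE inhibitor […] (300 uM solution added) for 30 min at 37C. Intracellular cAMP was measured by HTRF after 30 min lysis at room temperature.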
TRPV1 PAM = human TRPV1 potentiation; Q8NER1; TRPV1-expressing cells, Fluo-8 calcium influx, capsaicin EC20 potentiation; host cell line not named in the record; control for the full effect not named in the record; potentiation, % at 8.33 µM; 0.02% of 320,000 active; AID 540277; active means potentiation above 80%; inconclusive means 30% to 80%; inactive means below 30%; further: 0% is about no effect
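Cells expressing TRPV1 were dye-loaded with Fluo-8 and read kinetically: 10 s baseline, 3 min after compound (agonist portion), then 2 min after EC20 capsaicin (allosteric enhancer portion). Calcium-bound dye fluorescence at 480/520 nm.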
* marks the source's active call; other numbers are inactive results; ? = inconclusive; · = no result given; & = joins results of further samples; [ ] = dose if it differs, or a comment.

The line under a structure holds: TRPML1 blocker, gsp antagonist, Sfp inh, Menin-MLL FL inh, gsp agonist, ClpP mod, TRPV1 PAM
Fc1ccc(-n2c(Cc3cccs3)n[nH]c2=S)cc1Cl
 : 8, 3%, 7%, 1.1, 7%[15.4 µM], ·, 0
O=C1CCC(CCc2nc3ccccc3[nH]2)(c2ccccc2)C(=O)N1 (centres undefined)
 : 10, -23%, ·, ·, -3%, 0.3%, ·
Cc1ccc(S(=O)(=O)N2CCOCC2)cc1C(=O)NC1CCCCC1
 : -6, 3%, 1%, -1.7, -8%, -2.7%, -11
COc1c(C=O)c(CCN(C)C(=O)c2ccc(F)cc2)cc2c1OCO2
 : 1, 6%, 19%, -4.8, 3%[15.4 µM], -1.4%, -4
CCCn1c(SCC(=O)Nc2cc(S(=O)(=O)N3CCCCC3)ccc2C)n[nH]c1=O
 : 13, 3%, ·, ·, -1%, -2.3%, 13
COc1cc(C(=O)N2CCN(c3ccccc3Cl)CC2)ccc1OCC(=O)N1CCOCC1
 : 7, -7%, ·, ·, 0%, 2.7%, -3
Cc1ccc(C)n1-c1ccc(C(=O)NCC2CCCO2)cc1 (centres undefined)
 : -6, 16%, 2%, 1.0, -40%[inhibitor], -8.3%, 0
COc1ccc(-c2nc(SC(C)C(=O)c3c(N)n(C)c(=O)n(C)c3=O)n[nH]2)cc1 (centres undefined)
 : -1, -19%, ·, ·, 3%, -1.3%, 8
O=C(CSc1nnnn1C1CCCCC1)Nc1ccc2c(c1)OCO2
 : 15, 3%, 5%, 1.8, -14%, -1.2%, -5
CCCCCCCNC(=O)C1(CC2CC(c3ccc(Cl)cc3)=NO2)CCN(C(=O)C2(C)CC2)CC1 (centres undefined)
 : 52, -20%, -3%, 4.2, 12%, 1.1%, 11
Clc1ccc(OCc2nnc(SCc3nc4ccccc4[nH]3)n2Cc2ccco2)cc1
 : -4, ?, -2%, 8.5, 10%, -6.6%, 5
CC(C)CCNC(=O)CCC(=O)NNc1nc2ccccc2c2nc(-c3ccccc3)nn12
 : -13&2, 7%, 28%, 0.4, 61%[15.4 µM], -7.5%&0.5%, 26
Fc1ccc(C2CC(c3ccccc3)n3ncnc3N2)cc1 (centres undefined)
 : 1, 9%, 10%, 1.0, -1%, -0.8%, -10
CCOc1ccc(C2/C(=C(/O)c3ccc(OC)cc3)C(=O)C(=O)N2c2cc(C)on2)cc1OC (centres undefined)
 : -7, ?, 3%, 2.0, 1%, -0.3%, -10
CCC(C(=O)NCCc1ccc(C)cc1)n1nc(C)c2c(C)n(-c3ccccc3)nc2c1=O (centres undefined)
 : -5, 50µM*, 4%, -4.9, ?, -2.0%, -6
O=C(Nc1cc(C(F)(F)F)ccc1N1CCCC1)C1=COCCO1
 : 10, -8%, ·, ·, -10%[15.4 µM], 0.6%, 4
C/C(=N\NC(=O)c1ccccc1)c1nc2ccccc2n1C
 : 10, -6%, -13%, ·, ?, -0.6%, -11
N#Cc1nc(-c2ccco2)oc1N1CCC(Cc2ccccc2)CC1
 : 39, -7%, -10%, -0.7, 11%, 25µM*, -18
O=C(CN1C(=O)CSc2ccccc21)N/N=C/c1ccco1
 : -12, 10%, 18%, 3.2, -5%[15.4 µM], ·, -1
C1CSC2(N1)C1CC3CC(C1)CC2C3 (centres undefined)
 : -7, 7%, 35µM*, 2.6, 21%, -1.8%, 2
CC(C)(C)c1ccc(-c2cc(N)n[nH]2)cc1
 : -11, -6%, 22%, 1.5, 1%, -6.8%, 5
CCCOC(=O)C1=C(C)N(C)C(=O)NC1c1cc2c(cc1[N+](=O)[O-])OCO2 (centres undefined)
 : 5, -2%, 14µM*, -16, -1%[15.4 µM], ·, 6
CSCCC(NC(=O)c1ccc(Cl)cc1Cl)C(=O)N1CCCCCCC1 (centres undefined)
 : 36, -6%, ·, ·, -4%, -13%, -40
CCC(=O)OCC(=O)N=c1sccn1Cc1ccccc1Cl
 : 12, 2%, 2%, ·, 2%, 0.5%, -6
CCOP(=O)(OCC)C(C)(C)NC(=O)c1cc([N+](=O)[O-])cc([N+](=O)[O-])c1
 : 3, 13%, 12%, -0.5, -14%, 2.3%, 0
CC(C)Cc1cc(CNC(=O)C2CCC(=O)N(Cc3cccc(C(F)(F)F)c3)C2)on1 (centres undefined)
 : 2, 6%, 11%, ·, -19%, -2.2%, -2
Cc1ccc(-n2c(CSc3nc(C)cc(C)n3)nnc2SCC(=O)Nc2nccs2)cc1
 : -13, 6%, 13%, 4.0, 2%[15.4 µM], ·, 13
Cc1cc(NC(=O)C2CC(c3ccccc3Cl)=NO2)no1 (centres undefined)
 : 3, 6%, 7%, 0.2, -12%, -0.2%, -4
Cc1ccc(C)c(N2CCN(C(=O)c3cc4sccc4n3C)CC2)c1
 : 3, ?, -18%, 2.6, 22%, -0.5%, 15
CCc1noc(C)c1C(=O)Nc1nnc(C2CCCCC2)s1
 : ·, ·, -1%, -2.7, ·, ·, -28
Brc1ccccc1C1CC(c2ccccc2)=Nc2ccccc2N1 (centres undefined)
 : -3, -3%, -23%, ·, 28%[15.4 µM], -4.9%, -3
O=C(CN1CCC(N2CCCCC2)CC1)N1CCCc2ccccc21
 : 11, 0%, ?, -8.9, 0%, -0.7%, 0
O=S(=O)(Nc1ccc(S(=O)(=O)Nc2nccs2)cc1)c1ccc2c(c1)OCCO2
 : -14, -7%, -16%, 0.9, 10%, 0.0%, -14
COc1cccc(C2=NN(C(=O)c3ccccc3)C(O)(C(F)(F)F)C2)c1 (centres undefined)
 : 2, -23%, -10%, 12, -6%, 0.3%, -7
Cn1c(SCC(=O)NC(=O)NCc2ccco2)nnc1-c1ccccc1
 : -10, -2%, -17%, 2.1, -2%, 1.1%, 10
CCn1cc(C(=O)NCc2ccco2)c(=O)c2cc(F)c(N3CCN(C(=O)c4ccco4)CC3)cc21
 : -5, ?, ?, 2.6, -24%, 28µM*, 7
O=C(COC(=O)CCc1ccc(S(=O)(=O)N2CCOCC2)cc1)Nc1ccc(Cl)cn1
 : -14, 3%, -12%&17%, 4.3&1.6, 11%, -3.1%, 5&3
COc1ccc2c(c1)O[C@@H](c1cccc(C(F)(F)F)c1)[C@H](OC(=O)N[C@H]1CCCc3ccccc31)C2=O
 : ·, ·, -11%&6%, 0.8&8.2, ·, ·, 25
Cc1cccc(NC(=S)NC(=O)c2oc3ccccc3c2C)n1
 : 18, 9%, 9%, -0.6, -10%, ·, -7
Oc1ccc(CCNc2ncnc3ccc(Cl)cc23)cc1
 : 24, ?, 1%, 0.0, ·, -0.6%, -3
COc1ccc(NC(=O)Nc2ccccc2F)cc1
 : -6, 9%, 2%, 0.3, -4%, 1.1%, 10
CC1(C)CC(=O)C=C(C(=O)N2CCCC(C(=O)c3cccc(C(F)(F)F)c3)C2)O1 (centres undefined)
 : -8, -4%, -3%, ·, -2%, -1.6%, 1
O=C(NC1CC2CCCC(C1)N2C(=O)Nc1ccc(F)cc1)c1ccccc1 (centres undefined)
 : 3, ·, -2%, 2.9, 19%[15.4 µM], ·, 3
COC(=O)c1sc(NC(=O)CSc2nc3cccnc3n2C2CCCCC2)nc1C
 : -5, 2%, 10%, 3.8, 18%, -3.3%, -10
CCN1C(=O)N[C@@H](c2ccco2)C(C(=O)OC)=C1C
 : 9, -3%, -15%, -0.3[11.7 µM], 10%, -1.9%, ·
CN1CCN(C(=O)CCn2nc(-c3ccccc3)c3ccccc3c2=O)CC1
 : -1, -1%, 7%, -0.5, 30%, 0.6%, -1
COc1cccc(CN2CC(C(=O)N(C)Cc3[nH]c4ccccc4c3C)CCC2=O)c1 (centres undefined)
 : -9, -1%, 8%, 1.6, 26%, -7.1%, 1
CCCNC(=O)COc1coc(CN2CCN(c3cccc(Cl)c3)CC2)cc1=O
 : -5, 3%, -1%, ·, 18%, ·, -5
Cc1cc2ncn(C(=O)c3ccc4c(c3)OCO4)c2cc1C
 : -10, -18%, 6%, 0.4, -14%, -9.0%, 0
Cn1c(=O)c2c(O)cc(=O)n(-c3ccccc3)c2n(C)c1=O
 : -7, 9%, -5%, 1.6, 1%, -1.8%, -1
C=CCn1c(CCc2ccccc2)nnc1SCC(N)=O
 : -8, 6%, 8%, -0.3, -6%, -1.0%, -1
Cc1ccc(C)c(N(C(=O)c2snc(C(N)=O)c2N)C(C(=O)NCC2CCCO2)c2cccs2)c1 (centres undefined)
 : 12, ·, 2%, 1.6, 20%[15.4 µM], ·, 9
O=c1c2ccccc2[nH]c(=S)n1CCN1CCC(=C(c2ccc(F)cc2)c2ccc(F)cc2)CC1
 : ·, ·, -6%, 0.4, ·, ·, -1
O=C(c1cc2ccccc2o1)N1CCCC1
 : 21, 1%, 10%, -7.7, -1%, -3.5%, -16
Cc1oc(-c2cccc(Cl)c2)nc1CN1CCC(C(=O)NCc2ccco2)CC1
 : 3, 4%, 3%, 1.1, -12%, -1.6%, 27
O=C(NC1CCCC1)c1ccc(S(=O)(=O)N2CCOCC2)cc1
 : 20, 9%, 10%, 1.0, -140%[inhibitor], -1.1%, -2
COc1ccc(Cl)cc1NC(=O)CN(C)C(C)C(=O)NC(=O)NC1CCCCC1 (centres undefined)
 : -13, -7%, ·, ·, 9%[15.4 µM], -5.1%, 0
Nc1nonc1C(=O)N/N=C/c1ccc(-c2cccc([N+](=O)[O-])c2)o1
 : 37, ?, 6%, 1.7, 20%, 0.5%, -1
CC1CN(CCc2ccccc2)c2nc3c(c(=O)[nH]c(=O)n3C)n2C1 (centres undefined)
 : -6, 6%, 4%, 0.1, -7%, -0.7%, -1
C[C@@H]1CN([C@@H](C)CO)C(=O)CCCn2nncc2CO[C@H]1CN(C)S(=O)(=O)c1cccc(F)c1
 : -1, ·, ·, ·, ?, 1.5%, ·
